High-throughput results (PubChem BioAssay)
Six1-Eya2 blk: blocks human Six1 binding to Eya2 | AlphaScreen GST-Six1/His-Eya2 binding, biochemical; active compounds read low; control for the full effect not named in the record | activity change, % (concentration not given with the values) | 0.56% of 360,000 active; in the data active = activity change below about -65%; inconclusive = about -30% to -65%; inactive = above about -30%; further: on the % scale 0 is the no-effect control and ±100 the full control effect
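AlphaScreen with GST-Six1 and His-Eya2 (5X mix: 250 nM and 500 nM), glutathione donor and nickel acceptor beads; buffer 50 mM Tris pH 8.0, 300 mM NaCl, 1 mM TCEP; 1 h at 37 C in the dark.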
CtBP-E1A blk: CtBP/E1A binding inhibition. AlphaScreen GST-E1A/His-CtBP binding, 1536-well; active compounds read low; control for the full effect not named in the record. activity change, % (test concentration not listed). 0.49% of 340,000 active; in the data active means activity change below about -65%; inconclusive means about -30% to -65%; inactive means above about -30%; further: on the % scale 0 is the no-effect control and ±100 the full control effect
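Protein mix (5X: 125 nM each GST-E1A, His-CtBP) was incubated with pinned compound 2 h at 37 deg C in dark, in 50 mM Tris pH 8.0 buffer with 300 mM NaCl. Glutathione donor and nickel acceptor beads followed; AlphaScreen signal read after 1 h.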
D2 PAM: human D2 receptor positive allosteric modulation; 0.23% of 360,000 active; P14416; potentiation, % (concentration not given with the values); AID 624464; DiscoveRx D2 beta-arrestin cells, luminescence, 90 min; 100% = 57 uM dopamine signal; active = potentiation of 50% or more; inconclusive = 30% to 50%; inactive = 30% or less;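 further: compound concentration not given in the record; tested on top of an EC20 dose of dopamine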
Target sequence (P14416 whole entry, looked up): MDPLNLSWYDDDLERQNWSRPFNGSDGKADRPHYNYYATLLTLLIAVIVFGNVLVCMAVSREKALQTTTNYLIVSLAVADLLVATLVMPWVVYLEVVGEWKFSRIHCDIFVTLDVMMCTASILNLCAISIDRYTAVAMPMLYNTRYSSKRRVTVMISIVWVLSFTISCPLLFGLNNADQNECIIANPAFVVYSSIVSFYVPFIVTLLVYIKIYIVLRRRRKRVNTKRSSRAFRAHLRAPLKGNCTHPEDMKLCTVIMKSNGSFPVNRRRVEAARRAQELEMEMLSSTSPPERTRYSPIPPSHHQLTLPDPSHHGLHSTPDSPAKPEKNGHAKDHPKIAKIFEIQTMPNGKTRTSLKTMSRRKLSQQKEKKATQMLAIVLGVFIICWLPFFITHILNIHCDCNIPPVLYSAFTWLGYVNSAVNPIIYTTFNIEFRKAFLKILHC
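PathHunter beta-arrestin assay in DiscoveRx D2 cells. Compounds were added with an EC20 of dopamine (50 nM final) for 90 min at 37 deg C. Luminescence was read 1 h after detection reagent, with 57 uM dopamine as the EC100 control.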
TRPML1 agonist: activates the human TRPML1 channel | TRPML1-expressing cells, Ca2+ dye fluorescence, FDSS; host cell line not named in the record; reference of the full effect not given here | activation, % (no concentration beside the values) | 0.12% of 410,000 active; in the data active = activation above about 50%; inconclusive = about 30% to 50%; inactive = below about 30%; further: 0% is about no effect; the text of the record puts the active cut at 80%
Target sequence (Q9GZU1 whole entry, looked up): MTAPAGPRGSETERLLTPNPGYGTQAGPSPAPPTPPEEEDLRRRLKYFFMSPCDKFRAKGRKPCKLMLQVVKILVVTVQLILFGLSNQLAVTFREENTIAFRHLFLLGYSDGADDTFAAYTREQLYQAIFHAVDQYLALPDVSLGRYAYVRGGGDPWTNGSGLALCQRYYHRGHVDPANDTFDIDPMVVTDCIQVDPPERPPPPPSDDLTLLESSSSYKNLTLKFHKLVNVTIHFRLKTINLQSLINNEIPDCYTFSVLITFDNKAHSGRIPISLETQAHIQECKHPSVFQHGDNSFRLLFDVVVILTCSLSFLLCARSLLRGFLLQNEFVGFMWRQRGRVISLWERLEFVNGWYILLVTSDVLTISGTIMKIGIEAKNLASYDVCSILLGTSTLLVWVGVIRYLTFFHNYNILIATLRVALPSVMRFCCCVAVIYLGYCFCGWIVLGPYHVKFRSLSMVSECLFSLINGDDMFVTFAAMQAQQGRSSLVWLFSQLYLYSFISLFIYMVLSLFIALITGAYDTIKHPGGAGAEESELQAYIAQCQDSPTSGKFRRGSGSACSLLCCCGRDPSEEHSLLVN
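Kinetic FDSS Ca2+ read in Tet-induced TRPML1-DL cells (ABD Ca8 dye plus quencher, 45-90 min RT loading): baseline, then compound, then 110 s agonist window; EC80 agonist 54-4 at 4uM final added afterwards for a 110 s antagonist window.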
TRPML1 inh: blocks the human TRPML1 channel. activity change, negative = inhibition, % (concentration not given with the values). TRPML1-inducible cells, Ca2+ dye fluorescence, FDSS; active compounds read low; inhibition of EC80 agonist-evoked calcium signal. 0.02% of 390,000 active. AID 624415; in the data active means activity change below about -50%; inconclusive means about -30% to -50%; inactive means above about -30%;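 further: stimulus is agonist 54-4 at its EC80 concentration; on the % scale 0 is the no-effect control and ±100 the full control effect; the text of the record puts the active cut at -80%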
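TRPML1-DL cells, Tet-induced overnight (~16 h, 37 °C) at 1,500 cells/well, were loaded with Ca8 no-wash dye plus quencher for 45-90 min at room temperature. Compounds were pinned during FDSS kinetic reading; agonist 54-4 at EC80 (4 uM final) then added.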
TRPV1 potentiator: potentiators of human vanilloid receptor 1 (TRPV1). TRPV1-expressing cells, Fluo-8 calcium influx, capsaicin EC20 potentiation; host cell line not named in the record; control for the full effect not named in the record. potentiation, % at 8.33 µM. 0.02% of 320,000 active. AID 540277; active means potentiation above 80%; inconclusive means 30% to 80%; inactive means below 30%; further: 0% is about no effect
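Cells expressing TRPV1 were dye-loaded with Fluo-8 and read kinetically: 10 s baseline, 3 min after compound (agonist portion), then 2 min after EC20 capsaicin (allosteric enhancer portion). Calcium-bound dye fluorescence at 480/520 nm.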
* hit, by the source's call; ? = inconclusive; . = no result given; & = joins results of further samples.

(1) CCOC(=O)CSc1nc2ccccc2c(=O)n1CC1COc2ccccc2O1 (stereo not drawn)
(2) Cc1cc(=O)[nH]c(SCC2(O)C3CC4CC(C3)CC2C4)n1 (stereo not drawn)
(3) C[C@@H]1CN([C@H](C)CO)C(=O)c2cc(C3=CCCCC3)cnc2O[C@@H]1CN(C)Cc1ccccc1C(=O)O
(4) COc1ccc(NC(=O)CCN2CCOCC2)c(OC)c1
(5) O=S(=O)(c1ccc(F)cc1)n1ccc2cccnc21
(6) CCOC(=O)C1=C(C)NC(=O)NC1c1ccoc1 (stereo not drawn)

screen / no.	1	2	3	4	5	6
Six1-Eya2 blk	0	-3	5	7	3	-18
CtBP-E1A blk	8	10	-16	10	7	-2
D2 PAM	-3	-5	2	-6	-8	3
TRPML1 agonist	0.5	-0.4	-0.6	-1.1	-0.8	0.4
TRPML1 inh	4	-5	-7	12	-1	-13
TRPV1 potentiator	2	-1	.	-5	5	9

(7) CCOC(=O)c1nc(C)sc1-c1ccnn1S(=O)(=O)c1ccc(C)cc1
(8) COCCOC(=O)C1=C(C)N(c2ccccc2)C(=O)NC1c1cccc([N+](=O)[O-])c1 (stereo not drawn)
(9) N#Cc1cc(N)ccc1Sc1ccccc1
(10) CCCN1CCC(=NNc2ccc(S(=O)(=O)N(CC)CC)cc2[N+](=O)[O-])CC1
(11) O=C(NCC1CCN(S(=O)(=O)c2ccccc2)CC1)Nc1ccc(F)cc1
(12) COc1ccccc1OCc1ccc(C(=O)NCc2ccco2)o1

screen / no.	7	8	9	10	11	12
Six1-Eya2 blk	-2	0	2	-17	-18	-4
CtBP-E1A blk	-14	-8	-3	-10	-11	-5
D2 PAM	-7	24	2	-1	-4	-3
TRPML1 agonist	3.4	-0.4	1.3	0.4	-0.4	3.1
TRPML1 inh	-12	22	-7	8	-2	-2
TRPV1 potentiator	-29	3	12	0	-6	16

(13) COc1cccc(N2CCN(C(=O)c3ccc(CS(=O)c4ccccc4C)o3)CC2)c1 (stereo not drawn)
(14) Fc1ccccc1NC(=S)Nc1cccc2cnccc12
(15) COc1ccc(C(=O)Cn2c(Br)nc3c2c(=O)n(C)c(=O)n3C)cc1OC
(16) Cc1ccc(CC2(O)CC(C)N(C)CC2C)c(C)c1 (stereo not drawn)
(17) Cc1ccc(CNC(=O)CCCC(=O)c2ccccc2)cc1
(18) CC1CN(C(=O)c2cc3ccccc3oc2=O)CC(C)O1 (stereo not drawn)

screen / no.	13	14	15	16	17	18
Six1-Eya2 blk	-10	-1	-1	-1	0	7
CtBP-E1A blk	-3	-4	5	-5	-9	11
D2 PAM	-8	1	-5	-3	-7	0
TRPML1 agonist	0.3	0.0	-0.7	1.7	-0.4	-0.1
TRPML1 inh	-14	-8	-2	-4	-2	35
TRPV1 potentiator	22	29	-1	-5	-5	17

(19) CCc1noc(C)c1C(=O)OCC(=O)NC(C)c1ccccc1 (stereo not drawn)
(20) COc1ccccc1Cc1nc(-c2ccc(C)cc2)no1
(21) CCCn1c(N2CCN(CC(=O)Nc3ccc4c(c3)OCCO4)CC2)nc2ccccc21
(22) CC(C)CCNC(=O)CSc1nc2ccccc2c(=O)[nH]1
(23) COc1cccc(C2=NOC(C(=O)Nc3cccc(C(C)=O)c3)C2)c1OC (stereo not drawn)
(24) CCOc1ccc(/C=N/NC(=O)c2c(-c3ccccc3)noc2C)cc1

screen / no.	19	20	21	22	23	24
Six1-Eya2 blk	14	120	-1	5	1	-11
CtBP-E1A blk	.	163	-4	-1	-5	-15
D2 PAM	-9	15	-11	-17	-2	0
TRPML1 agonist	-0.2	5.2	2.6	2.8	-0.6	-0.9
TRPML1 inh	2	55	-4	-23	-5	0
TRPV1 potentiator	4	-28	1	-6	-3	4

7 entries picked at random from those above:
(14) Fc1ccccc1NC(=S)Nc1cccc2cnccc12
(13) COc1cccc(N2CCN(C(=O)c3ccc(CS(=O)c4ccccc4C)o3)CC2)c1 (stereo not drawn)
(5) O=S(=O)(c1ccc(F)cc1)n1ccc2cccnc21
(15) COc1ccc(C(=O)Cn2c(Br)nc3c2c(=O)n(C)c(=O)n3C)cc1OC
(17) Cc1ccc(CNC(=O)CCCC(=O)c2ccccc2)cc1
(7) CCOC(=O)c1nc(C)sc1-c1ccnn1S(=O)(=O)c1ccc(C)cc1
(20) COc1ccccc1Cc1nc(-c2ccc(C)cc2)no1

screen / no.	14	13	5	15	17	7	20
Six1-Eya2 blk	-1	-10	3	-1	0	-2	120
CtBP-E1A blk	-4	-3	7	5	-9	-14	163
D2 PAM	1	-8	-8	-5	-7	-7	15
TRPML1 agonist	0.0	0.3	-0.8	-0.7	-0.4	3.4	5.2
TRPML1 inh	-8	-14	-1	-2	-2	-12	55
TRPV1 potentiator	29	22	5	-1	-5	-29	-28

Compounds above with an NH in an aromatic ring, in the order listed:
(2) Cc1cc(=O)[nH]c(SCC2(O)C3CC4CC(C3)CC2C4)n1 (stereo not drawn)
(22) CC(C)CCNC(=O)CSc1nc2ccccc2c(=O)[nH]1

screen / no.	2	22
Six1-Eya2 blk	-3	5
CtBP-E1A blk	10	-1
D2 PAM	-5	-17
TRPML1 agonist	-0.4	2.8
TRPML1 inh	-5	-23
TRPV1 potentiator	-1	-6

More results follow.
(25) O=[N+]([O-])c1ccc2c(c1)C(O)n1nc(-c3ccccc3)nc1S2 (stereo not drawn)
(26) O=C(NCc1ccc2c(c1)OCO2)c1cc2ccccc2oc1=O
(27) COc1ccc2nc(NC(=O)C3CCCN(S(=O)(=O)c4cccc5nonc45)C3)sc2c1 (stereo not drawn)
(28) COc1cc(NC(=O)CCc2c(C)[nH]c(=O)c(C#N)c2C)cc(OC)c1
(29) C/C=C/c1ccc(OCCN2C(=O)NC(C)(C)C2=O)c(OC)c1
(30) Brc1ccc(/C=C/C=N/Nc2nc3ccccc3s2)cc1

screen / no.	25	26	27	28	29	30
Six1-Eya2 blk	5	0	-12	-22	4	21
CtBP-E1A blk	0	6	-20	-13	2	31
D2 PAM	-2	-7	25	-4	-15	-3
TRPML1 agonist	0.3	-0.3	-0.1	0.6	0.5	-0.4
TRPML1 inh	-4	-6	24	25	-2	27
TRPV1 potentiator	0	?	3	-3	12	.

(31) CCOC(=O)C1(CC)Oc2ccccc2C(c2ccc(OC)cc2)=C1C(=O)OC (stereo not drawn)
(32) COc1ccc(S(=O)(=O)N2CCC3(CC2)OCCN3S(=O)(=O)c2ccc(C)cc2)cc1OC
(33) CSCCC(NC(=O)C12CC3CC(CC(C3)C1)C2)C(=O)OCC(=O)c1ccc(C)cc1 (stereo not drawn)
(34) O=C(COc1ncnc2ccccc12)NCCc1ccc(F)cc1
(35) COC(=O)[C@]1(CC(C)C)N[C@H](c2ccc(SC3CCCCC3)c(OC)c2)[C@@H]2C(=O)N(C)C(=O)[C@@H]21
(36) CNC(=S)Nc1cc(C(=O)N2CCCC2)ccc1N1CCCC1

screen / no.	31	32	33	34	35	36
Six1-Eya2 blk	3	20	6	0	-11	1
CtBP-E1A blk	8	0	-24	4	-5	.
D2 PAM	.	-31	-3	3	-8	0
TRPML1 agonist	0.3	0.4	1.0	0.0	-0.8	1.6
TRPML1 inh	40	-2	-11	-10	-14	-17
TRPV1 potentiator	.	-7	-14	-3	5	7

(37) CC(Sc1nnc(C2CC2)n1C1CC1)C(=O)NCc1cccs1 (stereo not drawn)
(38) C=CCN1c2ccccc2C(=O)C(C)S1(=O)=O (stereo not drawn)
(39) COc1ccc(CC(=O)OC(C)CN2CCOCC2)cc1 (stereo not drawn)
(40) NNC(=O)c1[nH]c(-c2ccccc2)cc1-c1ccccc1
(41) CC(C)N(C(=O)CSc1nc2ccccc2n1Cc1ccccc1)C(C)C
(42) C=CCn1c(=S)[nH]c2nc3c(cc2c1=O)CCCC3

screen / no.	37	38	39	40	41	42
Six1-Eya2 blk	1	4	1	-6	4	-8
CtBP-E1A blk	9	3	9	.	6	3
D2 PAM	4	-6	-4	2	-17	-5
TRPML1 agonist	1.6	-0.6	-0.5	.	-0.3	0.7
TRPML1 inh	2	2	19	.	12	-13
TRPV1 potentiator	1	.	8	7	-13	-15

(43) CSCCC1NC(=O)N(CC(=O)Nc2c(C(C)C)cccc2C(C)C)C1=O (stereo not drawn)
(44) CC1(C)Cc2nc(N)c(C(=O)NCCO)cc2CO1
(45) CCN(C(=O)Cn1cc(C(F)(F)F)ccc1=O)C1CCS(=O)(=O)C1 (stereo not drawn)
(46) Cc1ccc2c(c1)N(CC(=O)NC(C)CCc1ccccc1)C(=O)c1cccnc1O2 (stereo not drawn)
(47) Cc1ccc(-n2c(C(C)n3nc(C)c([N+](=O)[O-])c3C)n[nH]c2=S)cc1 (stereo not drawn)
(48) c1coc(-c2nc(-c3ccncc3)no2)c1

screen / no.	43	44	45	46	47	48
Six1-Eya2 blk	1	-6	12	2	0	-4
CtBP-E1A blk	3	-6	-4	4	1	-9
D2 PAM	-3	-1	-15	-2	0	-7
TRPML1 agonist	-0.5	0.9	-0.4	0.8	-0.2	-0.8
TRPML1 inh	3	26	29	-12	0	17
TRPV1 potentiator	0	-9	.	?	-32	0

(49) CC(C)CCOCC(=O)Oc1ccccc1C(=O)O
(50) C=C1CCN(C(C)C(=O)O)S(=O)(=O)c2ccccc21 (stereo not drawn)
(51) Cc1ccc(N(CC(=O)NCC2CCCO2)S(C)(=O)=O)cc1Cl (stereo not drawn)
(52) Cc1ccc(S(=O)(=O)N2CCCC2C(=O)n2nc(C)cc2C)cc1 (stereo not drawn)
(53) COc1cc(C(C)=O)ccc1OCC(=O)N(CCC1=CCCCC1)c1c(N)n(Cc2ccccc2)c(=O)[nH]c1=O
(54) CCC(C)c1ccc(NC(=O)c2ccco2)cc1 (stereo not drawn)
(55) CCC(SC1=NCCS1)C(=O)Nc1ccc(S(N)(=O)=O)cc1 (stereo not drawn)

screen / no.	49	50	51	52	53	54	55
Six1-Eya2 blk	0	3	2	18	0	7	4
CtBP-E1A blk	0	-2	7	-3	12	.	7
D2 PAM	-10	-9	16	-6	13	-6	-12
TRPML1 agonist	-0.8	0.7&0.7	0.3	0.8	0.6	.	0.1
TRPML1 inh	-7	3&-4	-21	8	43	.	19
TRPV1 potentiator	0	3	-27	4	3	6	?

Three entries already listed, sorted by formula weight, high to low:
(50) C=C1CCN(C(C)C(=O)O)S(=O)(=O)c2ccccc21 (stereo not drawn)
(49) CC(C)CCOCC(=O)Oc1ccccc1C(=O)O
(54) CCC(C)c1ccc(NC(=O)c2ccco2)cc1 (stereo not drawn)

screen / no.	50	49	54
Six1-Eya2 blk	3	0	7
CtBP-E1A blk	-2	0	.
D2 PAM	-9	-10	-6
TRPML1 agonist	0.7&0.7	-0.8	.
TRPML1 inh	3&-4	-7	.
TRPV1 potentiator	3	0	6

Compounds were not picked by outcome; any-hit rate near 0.95%.
